Bioassay records deposited in PubChem by National Center for Advancing Translational Sciences (NCATS).
VDR inhibitor: Inhibitors of the vitamin D receptor (VDR): qHTS. Vitamin D3 receptor (Homo sapiens), P11473. VDR-SRC2-3 peptide fluorescence polarization, 2 h. Potency, µM, for inactives: max response, negative = inhibition, actives largely listed as inhibitors. 400,000 tested, 0.93% active. AID 504847, 2011; active = well fitted inhibition curve with a large enough effect; inconclusive = small, poorly fitted or top-dose-only effect, or another doubt; inactive = no such curve, though single readings can be large or run the other way; note: series mostly up to about 120 µM
Target sequence (P11473 whole entry, looked up): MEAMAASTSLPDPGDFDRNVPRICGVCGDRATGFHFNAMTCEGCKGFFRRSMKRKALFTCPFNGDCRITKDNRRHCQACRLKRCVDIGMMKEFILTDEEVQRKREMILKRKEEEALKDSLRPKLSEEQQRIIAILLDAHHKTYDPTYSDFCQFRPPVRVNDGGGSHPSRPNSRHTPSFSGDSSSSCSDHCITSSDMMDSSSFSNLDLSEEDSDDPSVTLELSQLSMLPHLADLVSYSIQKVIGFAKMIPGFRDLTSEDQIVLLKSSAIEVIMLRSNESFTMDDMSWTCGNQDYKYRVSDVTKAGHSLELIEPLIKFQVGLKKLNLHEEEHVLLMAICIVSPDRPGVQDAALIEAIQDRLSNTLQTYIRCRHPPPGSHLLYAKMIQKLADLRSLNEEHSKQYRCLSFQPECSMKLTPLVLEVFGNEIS
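Inhibition of the VDR/SRC2-3 peptide interaction is quantified by fluorescence polarization. Compounds (23 nl, pintool) incubate with the reagents for 2 hours at ambient room temperature.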
* = called active by the depositor; ? = inconclusive; & = joins results of further samples. % is set by controls: 0 for no effect and ±100 for the full control effect; potency is the fitted concentration of half-maximal effect.

SMILES	VDR inhibitor
CC(=O)c1ccc(N2CCN(C(=O)c3ccc4[nH]c(C)c(C)c4c3)CC2)cc1	-12%
COc1ccc2c(c1)-c1nc(/N=C/c3ccc(O)cc3)sc1CC2	-18%
CN(c1ccccc1)S(=O)(=O)c1cccc(NC(=O)CSc2ncn[nH]2)c1	6%
O=C(Nc1ccc(N2CCOCC2)c(S(=O)(=O)Nc2cc(Cl)ccc2Cl)c1)c1cccnc1	-19%
O=C(CSc1nc2c([nH]c3ccccc32)c(=O)n1-c1ccccc1F)Nc1cccc(C(F)(F)F)c1	3%
CCN1CCN(C(c2ccc(OC)cc2)c2nnnn2Cc2ccc3c(c2)OCO3)CC1 (stereo not drawn)	5%
Cc1cccc(N(C(=O)CCC(=O)Nc2cccnc2)C(C(=O)NC2CCCC2)c2ccncc2)c1 (stereo not drawn)	6%
CCC(=O)N(CC)Cc1cc(=O)[nH]c2ccccc12	-18%
O=C(CCc1ccccc1Cl)Nc1cc(S(=O)(=O)N2CCOCC2)ccc1N1CCCC1	8%
Cc1ccc(N)cc1S(=O)(=O)N(C)C	-4%
CCOc1ccc(-c2nc(N)nc(C)c2-c2ccc(Cl)cc2)c(O)c1	-13%
Cc1ccc(NC(=O)NCCN2CCCCC2)cc1C	6%
CCOc1ccc(NC(=O)c2ccc3[nH]c(=O)c(=O)[nH]c3c2)cc1	-11%
NC1(C(=O)O)CCc2cc(P(=O)(O)O)ccc21 (stereo not drawn)	6%
COc1ccc(C)c2sc(N3CCN(C(=O)c4cccc(F)c4)CC3)nc12	8%
Cc1ccc2cc(CCNC(=O)c3ccc(C)c([N+](=O)[O-])c3)c(=O)[nH]c2c1	-7%
C/C(=N/NC(=O)c1cnccn1)c1ccncc1	4%
COC(=O)[C@@]1(Cc2ccc(F)cc2)[C@H]2c3cc(C(=O)N(C)C)n(CCc4ccccn4)c3C[C@H]2CN1C(=O)c1ccccc1	9%
Cc1c(C(=O)NC2CCC(C)CC2)oc2ccccc12 (stereo not drawn)	-7%
CC(c1ccccc1)n1c(-c2cccs2)nc2c(c(=O)c3ccccc3n2C)c1=O (stereo not drawn)	-14%
O=C(CSc1ccc2nnc(-c3cccs3)n2n1)N1CCOCC1	9%
O=C1CN(C(=O)COC(=O)C2=COCCO2)c2ccccc2N1	-6%
COc1ccc(CCN2CC(C(=O)OCC(=O)NCc3ccccc3Cl)CC2=O)cc1OC (stereo not drawn)	3%
O=C(CCN1CCC2CCC(C2)C1)c1ccc(F)cc1 (stereo not drawn)	?
Nc1nonc1-n1nnc(C(=O)N/N=C/c2cccnc2)c1CSC1=NCCS1	-14%
Cc1ccc(NC(=O)c2[nH]cnc2C(=O)NN)cc1	2%
Cc1c(Cl)cccc1Nc1nc(N)nc(CSc2nc3ccccc3s2)n1	-3%&-6%
COc1ccccc1N1CCN(C(=O)C2CCN(S(=O)(=O)N3CCOCC3)CC2)CC1	15%
O=C(Nc1cccc(S(=O)(=O)NC2=NCCCCC2)c1)c1cc(-c2ccccc2Cl)nc2ccccc12	2%
O=C(CCCCCN1C(=O)[C@@H]2Cc3ccccc3CN2C1=O)Nc1ccccc1F	0%
CC1(C)CC(=O)C(C=NCCN2CCN(CC(=O)Nc3ccc(F)cc3)CC2)=C(O)C1	8%
O=C(CN(C(=O)CNS(=O)(=O)c1ccc(F)cc1)c1ccc(F)cc1)NCc1ccco1	1%
COc1ccc(/C=N/N2CCN(C)CC2)c(OC)c1OC	-12%
NCc1ccc2[nH]c(=O)[nH]c2c1	?
O=C(Cc1nnc(NC(=O)c2ccccc2)s1)N/N=C/c1ccc(O)cc1	3%
CCOC(=O)c1sc2nc(N3CCOCC3)c3c(c2c1N)CCC3	-10%
Cc1ccc(S(=O)(=O)Nc2ccc(NC(=O)CN3CCCCC3)c(Cl)c2)cc1	25%
COc1ccc(-n2c(=S)[nH]c3cc(C(=O)Nc4ccc(C)c(F)c4)ccc3c2=O)c(OC)c1	0%
COc1ccc(C(=O)NNC(=O)Cc2coc3cc(OC)ccc23)cc1	0%
CCOC(=O)c1[nH]c(C)c(CN(C(C)=O)c2ccc(OCC)cc2)c1C	-3%
O=C1CC2(CCN(S(=O)(=O)c3ccccc3)CC2)Oc2ccccc21	4%
CC1CCc2nn(CC(=O)NCCCN3CCOCC3)cc2C1 (stereo not drawn)	-4%
O=C(c1cnccn1)N1CCC[C@@]2(CCN(Cc3cc(C(F)(F)F)cc(C(F)(F)F)c3)C2)C1	?
COc1ccccc1C(CNC(=O)c1cccc(S(=O)(=O)NCc2ccccc2)c1)N(C)C (stereo not drawn)	-9%
COc1cc2c(cc1OC)CN(C(=O)c1oc3ccccc3c1C)CC2	-3%
CCCCCCOc1ccc(N2C(=O)CC(N(CCc3ccc(S(N)(=O)=O)cc3)C(C)=O)C2=O)cc1 (stereo not drawn)	8%
COc1ccc(CCNc2ccc(N3C(=O)CC(C)C3=O)cc2[N+](=O)[O-])cc1 (stereo not drawn)	8%
Cc1ccc(S(=O)(=O)NNC(=O)c2ccc(NC(=O)C3CC3)cc2)cc1	-1%

Exported with values ahead of the structure: entries from further up.
VDR inhibitor | Compound
-4% | CC1CCc2nn(CC(=O)NCCCN3CCOCC3)cc2C1 (stereo not drawn)
? | O=C(c1cnccn1)N1CCC[C@@]2(CCN(Cc3cc(C(F)(F)F)cc(C(F)(F)F)c3)C2)C1

Continuation:
SMILES	VDR inhibitor
O=C(NCc1cccnc1)C1CC(c2ccccc2O)=NO1 (stereo not drawn)	-1%
O=C1CC(Cc2ccccc2)C(=O)N1c1ccc(Cl)cn1 (stereo not drawn)	25%
COc1cc(OC)cc(C(=O)NNC(=O)c2ccccc2Br)c1	0%
Cc1nc2cnc(N3CCN(C)CC3)nc2n(C2CC2)c1=O	5%
COc1ccc2[nH]c3c(c2c1)CCN1C(=O)N([C@@H](C)C(=O)NC2CCCCC2C)C(=O)[C@]31C (stereo partly drawn)	12%
CC(NC(=O)C1CCC(CNS(=O)(=O)c2ccc3c(c2)C(C)(C)C(=O)N3C)CC1)c1ccccc1 (stereo not drawn)	5%
CC1(C)CC(=O)c2c(n(-c3cccc4ccccc34)ccc2=O)C1	-12%
N#Cc1c(NC(=O)C2CC(Cl)=CCC2C(=O)O)sc2c1CCCCC2 (stereo not drawn)	-8%
O=S(=O)(c1ccc(NC(=S)NN=C(C2CC2)C2CC2)cc1)N1CCOCC1	?
Cc1ccccc1CNC(=O)C(=O)NCC1OCCCN1S(=O)(=O)c1ccc(F)cc1C (stereo not drawn)	-4%
Cc1sc2ncnc(-n3cnc4ccccc43)c2c1C	4%
CCCOC(=O)c1ccc(Oc2c(-c3ccc(OC)cc3O)n[nH]c2C)cc1	4%
O=C(Nc1cc2c(=O)n(-c3ccc(Oc4ccccc4)cc3)ccc2oc1=O)c1ccccc1	5%
CC(C)(C)NC(=O)CON=C1c2ccccc2-c2ccccc21	-17%
Cc1cc(NC(=O)c2ccc(N3C(=O)C4C5C=CC(C5)C4C3=O)cc2)no1 (stereo not drawn)	2%
Cc1cccc(CN2CCC(C(=O)Nc3cccc(-c4cscn4)c3)CC2)n1	-2%
COc1ccc(-c2nnc(SCC(=O)NNC(=O)c3ccc(C)cc3)o2)cc1	-10%
COc1ccccc1N1CCN(C(=O)C(C)N(c2ccc(C)c(C)c2)S(C)(=O)=O)CC1 (stereo not drawn)	2%
CCc1ccc(NC(=S)N(CCCN2CCN(C)CC2)Cc2cccs2)cc1	0%
O=C(Nc1ccc(OCc2cc(=O)n3c4c(sc3n2)CCCC4)cc1)c1ccccc1	-15%
CCOC(=O)c1ccc2[nH]c3c(c2c1)CN(C)CC3	-3%
CCOCCOc1cccc(C(=O)NC(c2ccccc2)c2ccccc2)c1	5%
COc1ccc(-c2noc(-c3ccc(NCC4CCCO4)c([N+](=O)[O-])c3)n2)cc1OC (stereo not drawn)	1%
COc1ccc(CN2CCC3C=CCC(C(=O)O)C3C2=O)cc1OC (stereo not drawn)	-5%

As entered above.
`COc1ccc(-c2nnc(SCC(=O)NNC(=O)c3ccc(C)cc3)o2)cc1` in VDR inhibitor shows -10%
`Cc1cc(NC(=O)c2ccc(N3C(=O)C4C5C=CC(C5)C4C3=O)cc2)no1` (stereo not drawn) in VDR inhibitor shows 2%
`O=C(Nc1cc2c(=O)n(-c3ccc(Oc4ccccc4)cc3)ccc2oc1=O)c1ccccc1` in VDR inhibitor shows 5%
`CCc1ccc(NC(=S)N(CCCN2CCN(C)CC2)Cc2cccs2)cc1` in VDR inhibitor shows 0%
`CCOC(=O)c1ccc2[nH]c3c(c2c1)CN(C)CC3` in VDR inhibitor shows -3%
`COc1ccc(CN2CCC3C=CCC(C(=O)O)C3C2=O)cc1OC` (stereo not drawn) in VDR inhibitor shows -5%

Next section:
SMILES	VDR inhibitor
O=C(CN1CCCC1)Nc1c2c(nc3ccccc13)N(Cc1ccccc1)CC2	10%
NC(=O)NC(Cc1ccccc1)C(=O)NNC(=O)COc1ccccc1Cl (stereo not drawn)	15%
CCCc1ccc2oc(C(=O)N(C)Cc3ccn[nH]3)c(C)c2c1	-19%
CCOc1cc(C2C(C(=O)OC)=C(C)NC3=C2C(=O)c2ccccc23)ccc1OC (stereo not drawn)	5%
CCc1nnc(NC(=O)CSc2nnc(Cc3ccccc3)n2-c2ccccc2)s1	-3%
Cc1ccccc1CC(=O)NCCN1CCOCC1	17%
Cc1cccc(CCNC(=O)C2CCN(S(=O)(=O)c3c(C)nn(C)c3C)CC2)c1	0%
O=C(O)c1cnc(-c2ccccc2)nc1Sc1ccccc1	4%
CN(C)CCC1Sc2ccccc2Oc2ccccc21 (stereo not drawn)	-5%
CC(=O)Nc1ccc(Nc2ncnc(N)c2[N+](=O)[O-])cc1	-5%
COc1ccc(CNC(=O)CCS(=O)(=O)c2cc(Br)cc3c2N(C(C)=O)C(C)C3)cc1 (stereo not drawn)	-14%
COC(=O)c1cn(C(=O)c2cc(OC)cc(OC)c2)c2ccccc12	-5%
O=C(N/N=C\c1cccnc1)c1ccc(Cl)cc1Cl	1%
CCOC(=O)c1nn(-c2ccc3ccccc3c2)cc1O	6%
CCOc1ccc(NC(=O)CN2C(=O)COc3ccc(S(=O)(=O)Nc4ccccc4)cc32)cc1	17%
Cn1cc(CNC(=O)C2CCCCC2)cn1	-9%
Cc1cccc(CCNC(=O)COc2cc(=O)n(C)c3ccccc23)c1	-4%
CCN(C(=O)COC(=O)c1cc([N+](=O)[O-])ccc1N1CCOCC1)C1CCCCC1	-10%
CN(C)S(=O)(=O)n1cnc([C@@H]2[C@@H]3C(=O)OC[C@@H]3C[C@]23N=CN(Cc2ccccc2)C3=O)c1	-6%
CCOC(=O)CC1C(=O)NC2CCCCC2N1C(=O)Nc1ccc(Cl)cc1 (stereo not drawn)	-1%
COc1ccc(Cl)cc1-n1c(=S)sc2c(=O)[nH]c(SCC(=O)C(C)(C)C)nc21	?
CC(C)CNC(=O)CSc1nnc(-c2cccc(S(=O)(=O)N3CCCCC3)c2)o1	-13%
Cc1ccc(C(=O)N/N=C\c2ccc(OC(=O)c3cccc(F)c3)cc2)cn1	-19%
COc1ccc(C(C(=O)NC2CCCC2)N(Cc2ccccc2)C(=O)c2snc(C(N)=O)c2N)cc1OC (stereo not drawn)	-6%
CC(Sc1ccc(S(=O)(=O)N2CCOCC2)cn1)C(=O)Nc1ccc(Cl)cc1Cl (stereo not drawn)	-11%
CCOC(=O)N1CCC(N(CCN(C)C)C(=S)Nc2ccc(Oc3ccccc3)cc2)CC1	-5%
O=C(CC1C(=O)N(c2ccccc2)C(=O)N1CCC1=CCCCC1)Nc1ccc(F)cc1 (stereo not drawn)	9%
CCN(c1nc(C)cc(OC)n1)S(=O)(=O)c1ccccc1	14%
COC(=O)c1ccc(NC(=O)CCc2nnc3ccc(N4CCC5(CC4)OCCO5)nn23)cc1	-12%
Cc1c(C(=O)N(Cc2ccccc2)C(C)C)oc2ccc(S(=O)(=O)N3CCOCC3)cc12	-12%
Cc1ccc(C(=O)NCC(c2ccco2)N2CCOCC2)cc1 (stereo not drawn)	-22%
Cc1ccc(-c2nnc3n2N=C(c2ccccc2)CS3)cc1	-9%
O=[N+]([O-])c1ccc(O)c(/C=N/Nc2ncnc3c2cnn3-c2ccccc2)c1	24%
Cc1nnc(NC(=O)CSc2ncn(-c3ccccc3)n2)s1	-3%
Cc1nc(N=Nc2ccc(C(=O)O)cc2)c(COP(=O)(O)O)c(C=O)c1O	-3%
COc1ccc(/C=C/c2nc(-c3ccccc3O)n(-c3ccccc3)n2)cc1OC	12%
CN1CCN(C(=O)c2ccc3ccccc3c2)CC1	4%
CCn1cc(/C=C(\NC(=O)c2ccc(OC)cc2)C(=O)N2CCOCC2)c2ccccc21	8%
COc1ccc(N(CC(=O)Nc2ccccc2C(N)=O)S(=O)(=O)c2ccc(C)c([N+](=O)[O-])c2)cc1	-10%
O=C(O)CCc1nn2cc(-c3ccccc3)nc2[nH]c1=O	-12%
CCOC(=O)N1N=C(c2ccccc2)CC1(O)C(F)(F)F (stereo not drawn)	-13%
CCOC(=O)CSc1nnc(COc2cccc(C)c2)o1	1%
CC(C)C(=NO)c1ccccc1	-5%
CCCN1C(=O)/C(=C/c2cc(C)n(C)c2C)SC1=Nc1ccc(OC)cc1	4%

Among those listed so far, these have a furan ring, fused or not.
SMILES	VDR inhibitor
Cc1c(C(=O)NC2CCC(C)CC2)oc2ccccc12 (stereo not drawn)	-7%
O=C(CN(C(=O)CNS(=O)(=O)c1ccc(F)cc1)c1ccc(F)cc1)NCc1ccco1	1%
COc1ccc(C(=O)NNC(=O)Cc2coc3cc(OC)ccc23)cc1	0%
COc1cc2c(cc1OC)CN(C(=O)c1oc3ccccc3c1C)CC2	-3%
CCCc1ccc2oc(C(=O)N(C)Cc3ccn[nH]3)c(C)c2c1	-19%
Cc1c(C(=O)N(Cc2ccccc2)C(C)C)oc2ccc(S(=O)(=O)N3CCOCC3)cc12	-12%
Cc1ccc(C(=O)NCC(c2ccco2)N2CCOCC2)cc1 (stereo not drawn)	-22%

Not all compounds are listed; the hit share may differ from the screen's.
